Screens as filed in PubChem.
GIV-Gai inh: blocks GIV peptide binding to rat Galpha-i3. P08753. Galpha-i3/FITC-GIV peptide fluorescence polarization, 90 min; stronger effect = lower value; scaled: aluminum fluoride 0%, vehicle 100%. percent of control (FP), % (no concentration beside the values). hit rate 0.42% among 210,000. AID 1224905;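 active = replicate mean at 85% of control or lower, very high polarization wells dropped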;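 note: wells of about 15 µL received 100 nL stock; the first replicate is given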
Target sequence (P08753 whole entry, looked up): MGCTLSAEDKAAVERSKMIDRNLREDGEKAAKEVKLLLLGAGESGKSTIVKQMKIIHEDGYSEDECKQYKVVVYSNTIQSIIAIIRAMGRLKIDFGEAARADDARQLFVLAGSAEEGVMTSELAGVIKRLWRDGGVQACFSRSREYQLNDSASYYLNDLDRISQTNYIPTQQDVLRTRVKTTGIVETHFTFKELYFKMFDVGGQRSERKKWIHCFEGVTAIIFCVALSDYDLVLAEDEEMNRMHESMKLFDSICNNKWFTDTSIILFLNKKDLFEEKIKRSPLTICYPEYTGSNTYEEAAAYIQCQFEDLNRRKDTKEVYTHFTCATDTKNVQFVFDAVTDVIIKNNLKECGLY
HCMV UL50-53 inh: inhibitors of HCMV UL50-UL53 nuclear egress complex interaction; HTRF UL50-UL53 interaction, normalized percent inhibition; inhibition, % (no concentration beside the values); hit rate 0.15% among 190,000;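 active = both replicates at 50% or more, plus weaker picks with an unusually low signal ratio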;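 note: stock transfer was 100 nL into about 20 µL; 0% = negative control wells and 100% = wells with untagged competitor protein; inactives centre near -12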
Sa growth 42C: S. aureus growth inhibition | relative growth, % (concentration not given with the values) | S. aureus RN4220 growth, OD600, 20 h, 42 °C; stronger effect = lower value | hit rate 0.53% among 170,000 | AID 720641;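 active = growth at 42 °C up to 50% and 20 or more points under that at 30 °C, or under 10% at both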;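 note: 300 nL library stock went into each well; scaled to the means of positive and negative controls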
Sa growth 42C second temp: second read-out of Sa growth 42C, no call of its own (marks repeat the call); relative growth, %; measured here: growth at 30 °C;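 optical density after 20 h as mean of two plates; 100% = untreated growth and lower means inhibition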
An asterisk follows results filed as active; . = not tested or not shown.

SMILES	GIV-Gai inh	HCMV UL50-53 inh	Sa growth 42C	Sa growth 42C second temp
Cc1cc(-c2nc(-c3ccncc3)no2)n[nH]1	110	-15	.	.
COc1ccccc1C(=O)N(c1ccccc1)C(C)C1CC1 (stereo unspecified)	.	9	94	105
Cc1ccc(-n2ncc3c(=O)[nH]c(SCc4ccccc4)nc32)cc1	103	.	100	84
O=S1(=O)CCN(Cc2cccnc2)CC1	102	-12	.	.
CCCCCN1COc2ccc3c4c(c(=O)oc3c2C1)CCC4	107	22	101	109
CN(Cc1ccccc1)C(=O)c1cnn(-c2ccccc2)c1-n1cccc1	106	.	93	80
CCn1c(=O)c2cc(C(=O)NCCc3cccc(C)c3)sc2c2ccccc21	99	-12	94	99
CC1CCc2c(sc3nc(CN4CCOCC4)nc(Sc4nccn4C)c23)C1 (stereo unspecified)	.	10	94	92
O=C(CN1CCCN(Cc2ccccc2)S1(=O)=O)Nc1ccc2c(c1)OCCO2	99	4	.	.
Cc1ccc(CCNC(=O)c2nn(C)c3c2CSc2ccccc2-3)cc1	97	-8	90	91
Cc1ccc(C)c(NC(=O)N2CCN(c3ccc(-c4noc(C)n4)cc3)CC2)c1	109	-31	.	.
CC1CCCCN1C(=O)c1ccco1 (stereo unspecified)	.	-9	102	94
Cc1cccc2c1cnn2C(=O)CCC(=O)N1CCC(C)CC1	106	-37	.	.
O=C(COC(=O)c1ccccc1SCC(=O)N1CCCC1)NCc1ccco1	.	-24	101	87
O=C(c1nc2ncccn2n1)N(Cc1ccccc1)Cc1ccccc1	101	.	84	77

3 entries from above, sorted by molar mass, smallest number first.
SMILES	GIV-Gai inh	HCMV UL50-53 inh	Sa growth 42C	Sa growth 42C second temp
CCCCCN1COc2ccc3c4c(c(=O)oc3c2C1)CCC4	107	22	101	109
O=C(c1nc2ncccn2n1)N(Cc1ccccc1)Cc1ccccc1	101	.	84	77
O=C(COC(=O)c1ccccc1SCC(=O)N1CCCC1)NCc1ccco1	.	-24	101	87

Continued:
SMILES	GIV-Gai inh	HCMV UL50-53 inh	Sa growth 42C	Sa growth 42C second temp
O=C1CC(c2nc3ccccc3[nH]2)CN1c1cccc(C(F)(F)F)c1 (stereo unspecified)	.	-10	86	87
O=C(Nc1ccc(F)cc1)C1CCN(c2nc3ccccc3n3cccc23)CC1	101	-27	97	93
O=C(CS(=O)(=O)c1cn(CC(=O)N2CCCC2)c2ccccc12)NCc1ccccc1	100	-32	94	88
CCOC(=O)N1CCC(N(CCN(C)C)C(=S)Nc2cc(C)ccc2C)CC1	106	-24	98	95
CCCn1c2ccccc2n2cc(-c3ccc(F)cc3)nc12	99	-24	.	.
COc1ccc(N=C/C(Br)=C/c2ccccc2)cn1	.	5	71	41
c1ccc(Oc2nnc(Oc3ccccc3)c3ccccc23)cc1	99	-19	.	.
O=C(CCSc1nc(-c2ccco2)cc(C(F)(F)F)n1)Nc1ccccc1	101	.	97	101
Cc1nc(-c2cccc(N3CC(C(=O)N4CCc5ccccc54)CC3=O)c2)no1 (stereo unspecified)	105	-32	.	.
COc1ccc(/C=C2\CCc3ccccc3C2=O)cc1CN1CCOCC1	105	.	78	98
CCCc1c(O)nc(SCC(=O)O)[nH]c1=O	100	0	108	85
S=C1NCN(CCCn2ccnc2)CN1	101	-11	120	105
CCCN(CCC)c1nc(SC)nc(-c2ccccc2)c1C#N	102	1	79	77
CC(C)CN(CC(C)C)C(=O)COc1ccccc1C(N)=O	.	-4	101	94
COc1cccc(-c2nc(SCC(=O)NCC3CCCO3)c(-c3ccc(Cl)cc3)[nH]2)c1 (stereo unspecified)	101	-11	110	83
Cc1cc(C)c(NC(=O)Cn2c(=O)c3cccn3c3ccccc32)c(C)c1	99	-4	96	73
COc1ccc(CCNC(=S)NC(=O)c2ccc(Cl)cc2Cl)cc1OC	97	-50	89	90
CCCNC(=O)Nc1cc(S(=O)(=O)CC)ccc1O	99	-8	90	90
CCOc1ccc(S(=O)(=O)NCc2ccc3c(c2)CCN3C(=O)c2ccc(C)cc2)cc1	104	.	92	84
CNc1cc(C#N)c2cc(Br)ccc2n1	100	-13	86	85
O=c1c2oc3ccccc3c2n(Cc2ccc(Cl)cc2)c(=O)n1Cc1ccccc1	108	.	99	97
COc1ccccc1NC(=O)CN(Cc1ccco1)C(=O)Cn1nc(C(N)=O)c2ccccc2c1=O	.	-28	93	88
COc1ccc(NC(=O)N2CCN(Cc3ccccc3Cl)CC2)cc1	107	-6	98	102
Cc1onc(-c2ccccc2Cl)c1C(=O)OC(c1ccccc1)C(F)(F)F (stereo unspecified)	104	.	123	83
O=C(CNC(=O)c1ccco1)Nc1ccc(Br)cc1	101	.	87	87
N#CSc1cnc(NC2CCCCC2)s1	102	-30	5.0*	3.0*
FC(F)(F)Oc1ccc(-c2nnc(-c3ccccc3Cl)o2)cc1	103	-18	81	77
CCOc1ccc(OCCOn2nnc3ccccc32)cc1	.	-5	89	97
Cc1ccc(CN2CCc3nc(N4CCN(C)CC4)ncc3C2)s1	106	.	106	96
COc1cc(Nc2ncc3c(n2)CCN(Cc2ccc(OC(C)C)c(OC)c2)C3)cc(OC)c1	111	.	107	100
Cc1cc(C)n(N)c(=O)c1C#N	.	-4	87	93
CCCc1cc(=O)[nH]c(SCC(=O)N2CCCC2=O)n1	.	-24	102	91
COc1ccc(C(=O)Nc2ccc3oc(-c4ccccc4Br)nc3c2)cc1	107	1	.	.
OCC(O)C1OC(Nc2ccc(Br)cc2)C(O)C1O (stereo unspecified)	105	-18	104	90
CCOc1ccc(OCCCN2CCN(C)CC2)cc1	108	8	101	100
CC(C)(C)NC(=O)C1CC(=O)OC12CCCCC2 (stereo unspecified)	99	-25	116	91
Cc1ccc(-n2cnc3cc(C(=O)NC4CCCCCC4)ccc32)cc1Cl	103	.	125	105
CCCN1c2ccccc2S(=O)(=O)c2ccccc21	99	-14	95	85
CCc1ccccc1NC(=O)C1CCN(S(=O)(=O)c2cc(OC)ccc2OC)CC1	103	10	76	100
Cc1ccc(C(=O)Nc2cnc3c(C)cccn3c2=O)cc1	99	-78	.	.
CCC(C)NC(=O)CSc1nc2cc3c(cc2c(=O)n1CCCCCC(=O)NCc1ccc(OC)cc1)OCO3 (stereo unspecified)	101	.	106	67
CC(C)OC(=O)c1c(F)c(F)c(F)c(F)c1F	105	-9	104	96
O=C(Cc1cccs1)NCC(c1ccco1)N1CCCCC1 (stereo unspecified)	.	-33	104	96
O=S(=O)(Nc1ccc(O)c(Sc2ncn[nH]2)c1)c1ccccc1	103	.	97	99
Cc1cc(C)c(NC(=O)CSc2nc(C)cc(C)c2C#N)c(C)c1	109	-7	96	96

Single values from the results shown.
HCMV UL50-53 inh, Cc1nc(-c2cccc(N3CC(C(=O)N4CCc5ccccc54)CC3=O)c2)no1 (stereo unspecified) is entered as -32
Sa growth 42C second temp, COc1ccccc1NC(=O)CN(Cc1ccco1)C(=O)Cn1nc(C(N)=O)c2ccccc2c1=O is entered as 88

2 compounds drawn at random from the list so far:
SMILES	GIV-Gai inh	HCMV UL50-53 inh	Sa growth 42C	Sa growth 42C second temp
CCC(C)NC(=O)CSc1nc2cc3c(cc2c(=O)n1CCCCCC(=O)NCc1ccc(OC)cc1)OCO3 (stereo unspecified)	101	.	106	67
CCOc1ccc(OCCCN2CCN(C)CC2)cc1	108	8	101	100

More compounds follow:
SMILES	GIV-Gai inh	HCMV UL50-53 inh	Sa growth 42C	Sa growth 42C second temp
O=C(NCCN1CCNC1=O)c1ccc2nccnc2c1	95	-85	100	92
CCC(c1nnc(SCC(=O)Nc2cc(C)on2)o1)N(C)C (stereo unspecified)	.	-15	77	87
NCCCSc1nc(C2CC2)n(-c2ccccc2)n1	.	-9	90	102
c1ccc2sc(NC3=NCN(CCN4CCOCC4)CN3)nc2c1	.	-7	97	90
O=C(NCC1CCNCC1)/C(=N/O)c1ccccc1	98	.	96	87
CCCCCSC1=Nc2ccccc2NC(CC(=O)OC)=C1	111	-15	.	.
O=C(CSc1ncn[nH]1)Nc1ccc(N2CCOCC2)cc1	105	11	97	105
S=C(NCCc1ccccc1)N1CCC2(CC1)OCCO2	99	0	102	100
CCOC(=O)C1CCN(C2CC(=O)N(c3ccc(N4C(=O)CC(N5CCC(C(=O)OCC)CC5)C4=O)cc3)C2=O)CC1 (stereo unspecified)	106	-4	114	93
COC(=O)C1=C(c2ccccc2)S(=O)(=O)CCN1C(C)=O	.	-10	92	87
Cn1c(CO)nc2cc(Cl)ccc21	.	-5	123	82
CCCOc1ccc(NC(=O)c2cc(=O)c3ccc(C)cc3o2)c2cccnc12	105	-42	.	.
COc1cccc(-n2cc(C(=O)NCc3cccnc3)c3ccccc3c2=O)c1	100	-29	72	72
Cc1ccc(S(=O)(=O)CCC(=O)NCc2ccccc2)cc1	.	0	106	102
O=C1C2CC=CCC2C(=O)N1c1ccccc1 (stereo unspecified)	102	-9	97	108
O=C(CCSc1cccs1)Nc1cccc(C(F)(F)F)c1	102	1	75	101
CCCCSc1ncc(C(=O)OCC)c(N)n1	98	2	98	106
CC(=C1C(=O)c2ccccc2C1=O)N1CCN(c2ccccn2)CC1	99	-49	91	93
CC(C)(C)C1CCc2c(sc(NC(=O)Cn3nnc(-c4ccccc4F)n3)c2C#N)C1 (stereo unspecified)	100	-4	97	88
Cc1nc2c(C(=O)NCCCN(CC(C)C)CC(C)C)cnn2c(C)c1Cc1c(F)cccc1Cl	103	.	111	93
O=c1c2cccnc2n(Cc2ccccc2F)c(=O)n1Cc1ccccc1Cl	102	-35	104	89
CCNC(=O)C1CCN(c2nc3nc[nH]c(=O)c3s2)CC1	105	-36	.	.
COc1ccc(CCC(=O)NCc2nc3cccnc3n2Cc2ccc(F)cc2)cc1	111	.	103	102
O=c1ccc(=O)n(CNc2nccs2)[nH]1	.	-11	103	87
COc1ccc(C2SC[C@H]3C(=O)N(c4ccccc4)C(=S)N23)cc1 (stereo partly specified)	105	.	81	85
CN[C@@H]1C(OC2[C@H](O[C@H]3[C@H](O)[C@@H](O)[C@H](N=C(N)N)[C@@H](O)[C@@H]3N=C(N)N)OC(C)[C@]2(O)CO)OC(CO)C(O)C1O (stereo partly specified)	.	5	94	93
CNC(=O)c1cnc2sc(N3CCCC3)nn2c1=O	100	-16	109	95
CS(=O)(=O)c1ccc(Cl)c(Cl)c1	.	-30	129	82
CC(C)c1ccc(NS(=O)(=O)Cc2ccccc2)cc1	.	-1	81	92
CCn1ccc2cc(S(=O)(=O)N3CCCN(C(=O)Nc4ccccc4C(=O)OC)CC3)ccc21	103	2	.	.
COc1ccc(C2CC(=O)C3=C(C2)Nc2ccccc2NC3c2cc(Br)c(OC)c(OC)c2)cc1 (stereo unspecified)	106	-22	.	.
CCCc1ccno1	.	10	112	102
COc1cccc(NC(=O)C2CC(=O)N(Cc3ccco3)C2)c1 (stereo unspecified)	.	-8	79	103
NNc1nc(-c2ccccc2)cc(-c2ccccc2)n1	.	3	95	33
CCOc1cc(-c2ccc3c(c2)OCO3)cc(=O)c2c(C)oc(C)c12	99	-8	93	86
O=C(O)c1ccc(NC(=O)C2C3C=CC(C3)C2C(=O)O)cc1 (stereo unspecified)	100	17	93	107
Nc1c(C(=O)Nc2cccc(Cl)c2)sc2nc3c(cc12)CN(Cc1ccccc1)CC3	79*	-44	116	85
CCc1cc(-c2[nH]ncc2-c2ccc(OC)cc2)c(O)cc1OC	104	-5	89	56
CC(C)(C)NC(=O)Nc1c2ccccc2nc(=O)n1Cc1ccccc1	102	30	104	95
c1cncc(CNc2ccc3nncn3n2)c1	99	1	96	83
COc1ccc(Nc2nnc(-c3ccc(C)c(S(=O)(=O)NCc4nc5ccccc5[nH]4)c3)c3ccccc23)cc1	109	-21	101	121
O=C(Nc1ccccc1)c1nc(-c2ccccc2)n(-c2ccccc2)n1	109	5	104	94
O=C(Nc1ccccc1Br)c1cc(-c2ccccn2)nc2ccccc12	105	-30	.	.
CCOC(=O)C(C)Sc1ccc2nnc(CCNS(=O)(=O)c3ccccc3)n2n1 (stereo unspecified)	105	.	116	82
COC(=O)c1cc(NC(=O)COc2ccc3c(c2)OCO3)cc(C(=O)OC)c1	.	-8	96	90

Compound profiles, as listed above. Order of screens: GIV-Gai inh, HCMV UL50-53 inh, Sa growth 42C, Sa growth 42C second temp
`O=C(Nc1ccccc1)c1nc(-c2ccccc2)n(-c2ccccc2)n1` is listed as 109, 5, 104, 94
`CCOc1cc(-c2ccc3c(c2)OCO3)cc(=O)c2c(C)oc(C)c12` is listed as 99, -8, 93, 86
`CCCc1ccno1` is listed as ., 10, 112, 102
`COc1cccc(NC(=O)C2CC(=O)N(Cc3ccco3)C2)c1` (stereo unspecified) is listed as ., -8, 79, 103
`CC(C)(C)NC(=O)Nc1c2ccccc2nc(=O)n1Cc1ccccc1` is listed as 102, 30, 104, 95

The list goes on.
SMILES	GIV-Gai inh	HCMV UL50-53 inh	Sa growth 42C	Sa growth 42C second temp
CCC(C(=O)NC1CCCC1)n1c(SCc2ccc(C)cc2)nc2ccncc21 (stereo unspecified)	102	.	93	41
COc1ccc(Cn2c(CCC(=O)Nc3cc(OC)c(OC)c(OC)c3)nc3cccnc32)cc1	105	-2	101	98
N#CC(C#N)=C(Nc1ccc(Br)cc1)SCc1ccc(F)cc1	.	-3	31	26
O=C(Cc1ccc(S(=O)(=O)N2CCCCC2)cc1)Nc1cccnc1	.	11	87	102
Cc1nc2c(n1C1CCCCC1)C(=O)c1ccccc1C2=O	.	-95	103	86
O=C(c1cnc2ccc(Cl)cc2c1S(=O)(=O)c1ccc(Br)cc1)N1CCCC1	106	-8	.	.
